HIV Env fusion – HIV envelope-mediated fusion inhibition; 360,000 tested, 1.1% active; AID 651610; HeLa-JRFL Env/CEM21 cell fusion, luciferase; inhibition, % at 12.3 µM;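 active = mean replicate inhibition score of at least 50 and every replicate individually at or above 50; inconclusive = only one of the two criteria met; inactive = mean below 50 and not all replicates reaching 50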;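 note: 0% = plate neutral controls and 100% = maraviroc near 300 nM; one replicate is shown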
MT1-MMP act inh – MT1-MMP (human) activation inhibition. 360,000 tested, 0.061% active. AID 651647. HT1080 RFP-PRO-GFP cells, GFP/RFP ratio fluorescence, overnight; percent of plate control window, DMSO zero. P50281. GFP/RFP ratio change, % at 20 µM;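 active = GFP/RFP ratio change of at least 30% with cell ATP level not reduced by more than half and red fluorescence within 50% of control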; note: strong numbers were not always called active
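Assay system: RFP-PRO-GFP reporter HT1080 cells; read-out basis: GFP/RFP fluorescence ratio; benchmarks: DMSO wells and RFP-L50D-GFP cells; doses: 20 µM single dose, 1% DMSO; schedule: overnight cell settling, then overnight compound exposure, 37 °C, 5% CO2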
CSC inhib – cancer stem cell inhibition; cancer stem cell-like cells viability, luminescence; inhibition, % at 7.5 µM; 300,000 tested, 1.1% active;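 active = mean at 75% or more and at least half the replicates too; inconclusive = mean and replicates disagree; tested in HMLE shEcad cells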;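 note: 0% = median of negative and 100% = median of positive control wells; the first replicate is given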
Rce1 inh – blocks yeast Ras-converting enzyme. yeast membranes, quenched prenylated peptide cleavage fluorescence. calls only. 290,000 tested, 0.27% active;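 active = fall in fluorescence gain of 50% or more versus controls, with final raw signal at or below 3038400; inconclusive = same 50% fall but final raw signal above 3038400; inactive = fall in fluorescence gain under 50%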;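 note: plate controls were neutral control wells for no effect and wells lacking membranes for full effect; tested at 10 µM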
Target sequence (Q03530 whole entry, looked up): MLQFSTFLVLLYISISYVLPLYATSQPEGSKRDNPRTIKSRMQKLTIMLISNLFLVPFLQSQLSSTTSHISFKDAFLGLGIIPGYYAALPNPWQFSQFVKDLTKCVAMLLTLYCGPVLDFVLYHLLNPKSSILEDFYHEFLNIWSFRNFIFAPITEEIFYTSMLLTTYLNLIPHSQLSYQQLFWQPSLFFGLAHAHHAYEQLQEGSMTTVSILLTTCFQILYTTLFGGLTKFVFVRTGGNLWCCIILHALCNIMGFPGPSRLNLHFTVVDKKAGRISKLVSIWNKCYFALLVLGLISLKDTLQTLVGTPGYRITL
eIF4H FP inh – inhibitors of RNA binding by human eIF4H; Q15056; eIF4H fluorescence polarization binding assay; inhibition, % at 35 µM; 290,000 tested, 0.94% active;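 active = 50% or more with normal probe brightness, or confirmed in later tests; inconclusive = above 50% with abnormal brightness, or retests that disagree; inactive = below 50% or failed in later tests; about a fifth of its hits are not listed in these tables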;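 note: calls also rest on retests at 20 µM and on dose response follow-up; 0% = protein and probe with vehicle and 100% = probe without protein; strong numbers were not always called active; many hits fall short of the cut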
UUG fidelity – yeast start codon fidelity modulation; S. cerevisiae UUG-firefly luciferase reporter, luminescence/redox ratio; activity score, % at 18.7 µM; 350,000 tested, 0.13% active;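 active = replicate mean at a twofold rise or more, about +100% in these data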;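 note: firefly luciferase made from a UUG start codon reports start codon fidelity; reporter light over untreated wells divided by growth signal over untreated wells; some hits fall short of that in this replicate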
PABP polyA inh – blocks human PABP binding to poly(A) RNA; P11940; fluorescence polarization; inhibition, % at 35 µM; 290,000 tested, 1% active; AID 2014;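 active = 50% or more with normal probe brightness, or confirmed in later tests; inconclusive = above 50% with abnormal brightness, or retests that disagree; inactive = below 50% or failed in later tests; about a fifth of its hits are not listed in these tables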;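 note: calls also rest on retests at 20 µM and on dose response follow-up; controls were probe without protein and protein plus probe with vehicle; some compounds called inactive have numbers as strong as hits; many hits fall short of the cut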
eIF4H FP inh retest – recorded beside eIF4H FP inh, whose call it bears; inhibition, %; compound at 20 µM; confirmation average;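 mean of two retest wells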
PABP polyA inh retest – also measured in PABP polyA inh; calls as there; inhibition, %; compound at 20 µM; confirmation repeats;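 mean of two retest wells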
MT1-MMP act inh RFP – second read-out of MT1-MMP act inh, no call of its own (marks repeat the call); RFP signal change, %; measured here: RFP expression control read;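 0 = vehicle wells; hits needed this value within 50% of zero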
* marks the source's active call; other numbers are inactive results; i = inactive; ? = inconclusive; . = no result given.

SMILES | HIV Env fusion | MT1-MMP act inh | MT1-MMP act inh RFP | CSC inhib | Rce1 inh | eIF4H FP inh | UUG fidelity | PABP polyA inh | others
O=C(Nc1cccnc1)c1ccc2ccccc2c1O | -45 | 2 | -1 | -1 | i | -5 | -9 | -7
CCN(c1ccccc1)S(=O)(=O)c1cccc(C(=O)NCC(c2cccs2)N2CCOCC2)c1 (centres undefined) | 6 | . | . | ? | i | . | -5 | .
COc1ccccc1CNC(=O)CN(CCc1ccccc1)S(C)(=O)=O | 9 | 2 | 4 | 18 | i | -4 | . | 15
CC(C)N(C(=O)COc1ccc(Br)cc1Cl)C(C)C | 10 | 0 | -6 | -15 | i | -5 | -3 | -4
COc1cc2[nH]c3c(N4CCN(c5ccccn5)CC4)ncnc3c2cc1OC | . | 7 | -6 | 22 | i | 0 | -2 | -20
CS(=O)(=O)N(CC(=O)Nc1cccc(F)c1)c1cccc([N+](=O)[O-])c1 | 23 | -2 | 2 | -11 | i | -13 | -23 | 3
c1ccc(Cn2ccc(-c3cnc(-c4ccccc4)s3)n2)cc1 | . | 1 | -18 | -3 | i | 93* | . | -10 | eIF4H FP inh retest=79*;PABP polyA inh retest=32
CCOc1cccc2c1OC1(C)CC2NC(=O)N1Cc1ccccc1 (centres undefined) | -7 | 0 | 2 | . | i | -4 | -21 | -2
COc1ccc(C(=O)OCC(=O)NC(=O)NC2CCCC2)cc1[N+](=O)[O-] | . | 5 | 3 | -13 | . | . | 1 | .
O=C(CNc1ccccc1C(=O)O)c1ccccc1 | 0 | 3 | 2 | -9 | i | -5 | -16 | 1
CCc1ccc(OCC(=O)NC(NC(=S)Nc2ccc(C)cc2C)C(Cl)(Cl)Cl)cc1 (centres undefined) | . | 2 | 1 | -9 | i | -12 | -27 | 13
CC(C)Oc1ccc(C(CC(=O)NCCCN(C)C)c2ccc(F)cc2)cc1 (centres undefined) | 5 | -4 | 0 | 0 | i | -7 | . | -18
C#CCOCCOCCOCCNc1nc(N2CCN(C(=O)[C@H]([C@@H](C)CC)n3cc([C@@H](N)Cc4ccc(O)cc4)nn3)CC2)nc(N2CCN(C(=O)[C@H](CCCCN)n3cc([C@@H](N)C(C)CC)nn3)CC2)n1 (some centres undefined) | . | 5 | 4 | -10 | i | 29 | -8 | 32
CC(=O)c1ccc(N2C(=O)[C@@H]3[C@H](C2=O)[C@H]2c4ccccc4C=NN2[C@@H]3C(C)=O)cc1 | 10 | -3 | 0 | 9 | i | 4 | . | 10
CCOC(=O)CCSCC(=O)N1N=C(c2cccs2)CC1c1ccc(C)cc1 (centres undefined) | 10 | 0 | 1 | -2 | i | -18 | . | -3
CN1CCN(S(=O)(=O)c2ccc(N(C)Cc3c(F)cccc3Cl)nc2)CC1 | 9 | -2 | -1 | 29 | . | . | -2 | .
CCCCOC(=O)C1=C(C)Nc2ncnn2C1c1ccc(OC)c(OC)c1OC (centres undefined) | -27 | -6 | 3 | -15 | i | 5 | -15 | -5
COc1ccc(-n2ncc3c2CC(C)(C)CC3NC(=O)CCc2c(C)nn(C)c2C)cc1 (centres undefined) | 8 | 1 | 3 | -18 | i | . | 45 | .
O=C1CCCCCC1C1(O)C(=O)Nc2ccccc21 (centres undefined) | . | -2 | 3 | -7 | i | -3 | -8 | -5
Cc1ccc(C2=NN3C(C2)c2ccccc2OC32C(=O)Nc3ccccc32)cc1 (centres undefined) | . | -5 | 5 | 3 | i | -7 | . | -4
O=C(O)CCSC1CC(=O)N(c2ccccc2)C1=O (centres undefined) | -4 | -1 | 1 | . | i | 4 | . | -1
Cc1cccn2c(=O)c3cc(C(=O)NCCc4ccccc4)c(=N)n(Cc4ccco4)c3nc12 | -8 | -3 | -7 | 12 | . | 52 | -8 | 38 | eIF4H FP inh retest=39;PABP polyA inh retest=33
COc1ccccc1OCc1nnc(SCC(=O)NCc2ccco2)n1-c1ccccc1 | . | 2 | 5 | -8 | i | 3 | -7 | 0
Cc1ccccc1-n1c(SCC(=O)Nc2ccc3c(c2)OCO3)nnc1-c1ccccn1 | 17 | -4 | 4 | 2 | i | 4 | -27 | 0
COc1nc(Nc2ccccc2F)nc(OC)n1 | 28 | 1 | 0 | -13 | i | 3 | -16 | 11

The list continues.
SMILES | HIV Env fusion | MT1-MMP act inh | MT1-MMP act inh RFP | CSC inhib | Rce1 inh | eIF4H FP inh | UUG fidelity | PABP polyA inh | others
O=C(CN1C(=O)NC2(CCCCC2)C1=O)NCc1cccs1 | . | 3 | 5 | -25 | i | -8 | -8 | -11
CCCOc1c(OC)cccc1C1CC(=O)Nc2cc(OC)c(OC)c(OC)c21 (centres undefined) | . | 2 | -1 | 17 | i | 10 | 7 | 10
CC1(C)CC(=O)C2=C(C1)N(c1ccccc1)C(N)=C(C#N)C2c1cccnc1 (centres undefined) | . | 2 | 4 | 14 | i | -3 | . | 3
Cc1ccccc1Nc1c(-c2ccncc2)nc2ccc(Cl)cn12 | 9 | 2 | 0 | -1 | i | 1 | . | 9
Cc1ccc(C(=O)NCC(=O)Nc2ccc3c(c2)OCCO3)cc1 | 8 | -3 | 0 | 8 | . | . | -46 | .
C#CCn1c(S(=O)(=O)Cc2ccc(F)cc2)nc(-c2ccccc2)c1-c1ccccc1 | 66* | -28 | -23 | 54 | i | -6 | -11 | 10
O=C(Nc1nc(-c2ccc(-c3ccccc3)cc2)cs1)c1cc([N+](=O)[O-])ccc1N1CCOCC1 | 12 | 1 | -3 | 6 | i | -15 | . | -5

Structures above containing a halogen:
SMILES | HIV Env fusion | MT1-MMP act inh | MT1-MMP act inh RFP | CSC inhib | Rce1 inh | eIF4H FP inh | UUG fidelity | PABP polyA inh | others
CC(C)N(C(=O)COc1ccc(Br)cc1Cl)C(C)C | 10 | 0 | -6 | -15 | i | -5 | -3 | -4
CS(=O)(=O)N(CC(=O)Nc1cccc(F)c1)c1cccc([N+](=O)[O-])c1 | 23 | -2 | 2 | -11 | i | -13 | -23 | 3
CCc1ccc(OCC(=O)NC(NC(=S)Nc2ccc(C)cc2C)C(Cl)(Cl)Cl)cc1 (centres undefined) | . | 2 | 1 | -9 | i | -12 | -27 | 13
CC(C)Oc1ccc(C(CC(=O)NCCCN(C)C)c2ccc(F)cc2)cc1 (centres undefined) | 5 | -4 | 0 | 0 | i | -7 | . | -18
CN1CCN(S(=O)(=O)c2ccc(N(C)Cc3c(F)cccc3Cl)nc2)CC1 | 9 | -2 | -1 | 29 | . | . | -2 | .
COc1nc(Nc2ccccc2F)nc(OC)n1 | 28 | 1 | 0 | -13 | i | 3 | -16 | 11
Cc1ccccc1Nc1c(-c2ccncc2)nc2ccc(Cl)cn12 | 9 | 2 | 0 | -1 | i | 1 | . | 9
C#CCn1c(S(=O)(=O)Cc2ccc(F)cc2)nc(-c2ccccc2)c1-c1ccccc1 | 66* | -28 | -23 | 54 | i | -6 | -11 | 10

Compound activity deposited in PubChem BioAssay by several laboratories.

An excerpt, so the mix of outcomes need not match the whole.
